Screening results (PubChem BioAssay)
AID923: qHTS Assay for Allosteric/Competitive Inhibitors of Caspase-1: Spectroscopic Profiling in AFC Spectral Region | compound fluorescence, AFC spectral region (405/520 nm); almost no hit is shown here | Potency, µM (series often up to 57.5 µM), for the others: at the top dose fluorescence increase, hits mostly activators | actives 1.1% (n = 75,000) | AID 923, 2007; active = well fitted activation curve with a large enough effect; inconclusive = small, poorly fitted or top-dose-only effect;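 note: potency is the fitted concentration of half-maximal effect; 0% is about no effect; scaled to a free AFC standard on each plate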
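Compound autofluorescence profiled at 405 nm ex/520 nm em during kinetic caspase 1 run (50 nM enzyme, 5 uM Ac-WEHD-AFC, HEPES pH 7.5, 10 mM DTT). Titration up to 57 uM; baseline from regression intercept, normalized to AFC standard curve.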
TSHR agonist: activates the human thyroid stimulating hormone receptor; P16473; Potency, µM (highest dose often 57.1 µM), for the others: top-dose activation, most hits filed as activators; actives 0.48% (n = 73,000); HEK293-CNG-TSHR cells (CNG channel as cAMP sensor), membrane potential dye, cAMP; AID 926; active = well fitted activation curve of enough size with the parental cells flat; inconclusive = any curve in the parental cells; inactive = parental cells flat and receptor cells flat or falling; note: potency is the fitted concentration of half-maximal effect; % of control where 0% means no effect; weak receptor curves with flat parental cells got no call and are not listed
Target sequence (P16473 whole entry, looked up): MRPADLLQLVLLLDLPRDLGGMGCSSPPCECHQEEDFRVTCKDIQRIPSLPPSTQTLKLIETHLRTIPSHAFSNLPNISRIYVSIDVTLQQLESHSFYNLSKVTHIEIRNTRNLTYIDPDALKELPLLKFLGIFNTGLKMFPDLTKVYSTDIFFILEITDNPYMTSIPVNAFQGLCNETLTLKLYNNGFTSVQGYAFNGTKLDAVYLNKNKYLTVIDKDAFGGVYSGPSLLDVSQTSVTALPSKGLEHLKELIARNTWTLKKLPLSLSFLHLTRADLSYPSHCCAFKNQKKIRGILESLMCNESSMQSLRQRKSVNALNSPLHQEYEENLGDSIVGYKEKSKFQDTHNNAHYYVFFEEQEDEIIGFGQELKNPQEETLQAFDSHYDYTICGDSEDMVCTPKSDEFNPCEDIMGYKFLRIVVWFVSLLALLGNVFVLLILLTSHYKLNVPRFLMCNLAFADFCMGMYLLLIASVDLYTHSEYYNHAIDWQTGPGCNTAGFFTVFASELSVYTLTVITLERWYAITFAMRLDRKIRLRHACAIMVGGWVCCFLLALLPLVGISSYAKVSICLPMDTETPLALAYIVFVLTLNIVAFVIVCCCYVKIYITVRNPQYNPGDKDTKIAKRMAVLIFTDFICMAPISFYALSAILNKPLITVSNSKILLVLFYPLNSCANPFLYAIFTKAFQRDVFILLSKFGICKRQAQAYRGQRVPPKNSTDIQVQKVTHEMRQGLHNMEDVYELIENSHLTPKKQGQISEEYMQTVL
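cAMP rise detected as CNG-channel membrane depolarization by fluorescent dye (emission 590 nm), 30 min after compound, following 60 min dye loading containing 100 uM RO 20-1724 at room temperature. Cells: TSHR/CNG HEK 293, with parental CNG HEK 293 as control.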
A647 fluor: A647 region autofluorescence | Compound fluorescence, A647 channel (570/671 nm), Tris buffer | max dye-equivalent concentration, M | 59,000 tested, under 10 active; active means above 1 µM dye equivalent; inconclusive means 0.1 to 1 µM; inactive means 0.1 µM or less;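 note: values scaled relative to a standard on each plate; highest value over a series up to 38 µM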
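Compound fluorescence was measured in 100 mM Tris buffer, pH 8.0, after 15 min at room temperature, using 570 nm excitation and 671 nm emission filters. Signal was normalized to a per-plate Alexa 647 standard curve and expressed as dye-equivalent concentration at each compound concentration.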
A488 autofl: compound autofluorescence in A488 spectral region; actives 0.1% (n = 59,000); compound autofluorescence, A488 spectral region, dye equivalency; active compounds read high; max dye equivalency, M; AID 591; active = above 10 nM dye equivalent; inconclusive = 1 to 10 nM; inactive = 1 nM or less; about half of its hits are not listed in these tables;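 note: highest value over a series up to 38 µM; compound alone in buffer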
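Compounds pin-transferred into 100 mM Tris buffer, pH 8.0, incubated 15 min at room temperature, then imaged with 480 nm excitation/540 nm emission filters. Fluorescence converted to Alexa 488 dye-equivalent concentration via an on-plate six-point A488 standard curve.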
Resorufin autofl: resorufin region autofluorescence; AID 588; actives 0.04% (n = 59,000); max dye-equivalent concentration, M; Compound fluorescence, resorufin region 547/598 nm, buffer; active compounds read high; active = above 10 nM dye equivalent; inconclusive = 1 to 10 nM; inactive = 1 nM or less; a few of its hits are not listed in these tables; note: highest value over a series up to 38 µM
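Dye-equivalent concentration values derive from comparing each well's 547/598 nm fluorescence against resorufin standards included on every plate. Incubation was 15 min at room temperature in 100 mM Tris, pH 8.0.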
* = called active by the depositor; i = inactive; ? = inconclusive; · = no result given; [ ] = remark or other dose.

Values in the order: AID923	A647 fluor	A488 autofl	Resorufin autofl	TSHR agonist
#1 CS(=O)(=O)Nc1cccc(-c2nccc(NCc3ccccc3)n2)c1
  -0.6%	3.3e-09	i	i	12%
#2 COc1ccc(CC(C)N2CCN(c3ccccc3OC)CC2)cc1OC (centres undefined)
  -0.3%	·	·	·	3%[11.4 µM]
#3 Cc1ccc2nc(NC3=NCN(CCN4CCOCC4)CN3)nc(C)c2c1
  1.8%	3.6e-08	i	i	-1%
#4 CN1CCC(OC(=O)C23CCC(C)(C(=O)O2)C3(C)C)CC1 (centres undefined)
  -0.2%	5.1e-09	i	i	3%
#5 Nc1ccc(-c2nc3c(Cl)cc(N)cc3[nH]2)cc1
  4.1%	5.4e-09	i	i	3%
#6 O=C(CN1C(=O)NC2NC(=O)NC21)NC1CCCCC1 (centres undefined)
  0.8%	1.2e-09	i	i	0%
#7 CCCSCCCNC(=O)c1cc2c(s1)CS(=O)(=O)C2
  0.6%	6.1e-09	i	i	-1%[11.4 µM]
#8 O=C(Nc1ccccc1)c1ccc(NCCN2CCOCC2)c(S(=O)(=O)N2CCOCC2)c1
  -2.9%	1.2e-08	i	i	0%
#9 Cc1c(C(=O)N(Cc2cccs2)C2CCS(=O)(=O)C2)oc2ccccc12 (centres undefined)
  0.1%	1.8e-08	i	i	24%
#10 CCOC(=O)COc1ccc(C2NC(C(=O)O)CS2)cc1 (centres undefined)
  -0.5%	1.9e-08	i	i	-1%
#11 COc1cc(N)cc(NC(=O)c2ccncc2)c1
  -0.3%	2.6e-08	i	i	-3%
#12 O=C(CSc1nnc(Cc2cc(=O)[nH]c(=O)[nH]2)n1-c1ccccc1)NCC1CCCO1 (centres undefined)
  0.1%	5.4e-08	i	i	-6%
#13 C=CCOc1cccc(C2/C(=C(/O)c3ccccc3)C(=O)C(=O)N2CCCN2CCOCC2)c1 (centres undefined)
  0.1%	1.8e-08	i	i	1%
#14 Nc1nc(SCc2ccccn2)c2ncn(C3CCCC3)c2n1
  0.8%[11.5 µM]	1e-09	i	i	?
#15 Cc1ccc(SCCNC(=O)CN(c2ccc3c(c2)OCO3)S(C)(=O)=O)cc1
  1.5%	1.5e-09	i	i	18%

Next part:
Values in the order: AID923	A647 fluor	A488 autofl	Resorufin autofl	TSHR agonist
#16 CC(=O)c1ccc(Nc2nc(C)nc3c2oc2ccccc23)cc1
  -2.1%	1.7e-09	i	i	7%
#17 Cn1c(=O)n(C)c2cc(C(=O)Nc3ccc4c(c3)OCO4)ccc21
  1.6%	6e-09	i	i	?
#18 COc1cc(CC(=O)Nc2ncc(C)s2)cc(OC)c1OC
  -0.4%	2.1e-08	i	i	3%
#19 Fc1ccc(N2CCN(C(c3cccs3)c3nnnn3CCc3ccccc3)CC2)cc1 (centres undefined)
  -0.1%	1e-09	i	i	?
#20 CCCC(=O)NCCc1c2n(c3ccc(OC)cc13)Cc1ccccc1-2
  -0.6%	1e-09	i	i	·
#21 Clc1ccc(OCc2nn3c(C4CCCCC4)nnc3s2)c(Cl)c1
  1.0%	1.7e-09	i	i	?
#22 COc1cccc(Cn2c(=O)cnc3cnc(N4CCOCC4)nc32)c1
  9.1%	1e-09	i	i	?
#23 COc1cc(-c2nnc(Cn3cc(C(F)(F)F)ccc3=O)o2)cc(OC)c1OC
  1.1%	1e-09	i	i	4%
#24 O=C(O)C1C2C=CC3(CN(CC(O)COc4ccccc4)C(=O)C13)O2 (centres undefined)
  -1.3%	·	·	·	16%
#25 CN(C(=O)c1cccnc1)c1nnc(-c2cccnc2)s1
  3.2%	1e-09	i	i	-2%
#26 Cn1c(SCC(=O)N2CCN(c3ccccc3)CC2)nnc1-c1cc2ccccc2o1
  -1.6%	2.3e-08	i	i	?
#27 O=C(Cc1ccc(-n2c(=O)[nH]c3ccccc3c2=O)cc1)N1CCN(c2ccccc2)CC1
  0.7%	1e-09	i	i	-5%
#28 O=C(Nc1ccc(N2CCOCC2)cc1)NC1CCCCC1
  -2.0%	·	·	·	17%
#29 CCn1c(CSc2ncccn2)nnc1SCC(=O)N1CCc2ccccc21
  1.3%	2.5e-08	i	i	2%
#30 COC1CCC(C(=O)c2ccc3nc4c(cc3c2)CCCO4)CC1 (centres undefined)
  0.4%	·	·	·	15%

Next records follow.
Values in the order: AID923	A647 fluor	A488 autofl	Resorufin autofl	TSHR agonist
#31 CCN(CC)CCNC(=O)c1ccc(N2CCCCC2)c(NS(=O)(=O)c2ccc(C)cc2)c1
  -2.1%	1e-09	i	i	16%
#32 Cc1cc(C)nc(-n2nc(C)c(Oc3ccccc3O)c2C)n1
  1.2%	·	·	·	-2%
#33 CCC(C)(C)c1ccc(Oc2cccc(C(=O)O)c2)cc1
  3.9%[11.5 µM]	2.3e-09	i	i	3%[11.4 µM]
#34 Cc1cccc(NC(=O)C2CCCN2S(=O)(=O)c2ccc(F)cc2)c1C (centres undefined)
  1.8%	1e-09	i	i	-7%
#35 O=C(Nc1ccc(N2CCN(C(=O)c3ccco3)CC2)cc1)c1ccc2c(c1)OCO2
  0.4%	3.1e-09	i	i	-23%
#36 CCN(CCCNC(=O)c1cn(CC)c2ccc(S(=O)(=O)N(C)C)cc2c1=O)c1cccc(C)c1
  -0.2%	3.1e-08	i	i	·
#37 COC(=O)[C@@]1(Cc2ccc(F)cc2)[C@H]2c3cc(C(=O)N(C)C)n(Cc4cc(C)n(C)n4)c3C[C@H]2CN1C(=O)c1ccccc1
  -2.3%	·	·	·	?
#38 COc1ccc(S(=O)(=O)N2CCC(C(=O)NCc3ccccn3)CC2)cc1C
  -1.0%	2.9e-08	i	i	·
#39 O=S(=O)(Nn1cnnc1)c1ccccc1Cl
  3.1%	4e-09	i	i	?
#40 CC1(C)CC(NC(=O)C23CCC(C)(C(=O)C2)C3(C)C)CC(C)(C)N1 (centres undefined)
  1.9%	·	·	·	2%
#41 CC1(C)CC(=O)C2=C(C1)N(CC1CCCO1)C(=O)C2(O)C(F)(F)F (centres undefined)
  ·	7.7e-09	i	i	·
#42 COc1ccc(OCC(=O)N2CCN(c3cccc(C(F)(F)F)c3)CC2)cc1
  -0.4%	3e-09	i	i	?
#43 ON(CCc1ccccn1)Cc1ccccc1
  -0.7%[11.5 µM]	1.4e-08	i	i	1%[11.4 µM]
#44 Clc1ccccc1-c1ccc2ncnc(N3CCNCC3)c2c1
  1.4%	2.6e-08	i	i	7%
#45 O=C(N/N=C1/C[C@@H](O)[C@@H](O)[C@@H]2[C@@H]3C(=O)N(Cc4ccccc4)C(=O)[C@H]3CC[C@@H]12)OCc1ccccc1
  -1.5%[11.5 µM]	·	·	·	-2%[11.4 µM]

The results go on:
Values in the order: AID923	A647 fluor	A488 autofl	Resorufin autofl	TSHR agonist
#46 NC(=O)CSc1nnc(COc2ccccc2)n1CCc1ccccc1
  -0.4%	1e-09	i	i	-3%[11.4 µM]
#47 O=C(O)CCCC(=O)Nc1c(F)c(F)c(F)c(F)c1F
  8.0%	·	·	·	-1%
#48 COC(=O)c1cccc(NC(=O)CSc2nnc(COc3ccc(C#N)cc3)n2-c2ccccc2)c1
  0.4%	4.1e-09	i	i	17%
#49 Cc1nc2nc(C)c(CCC(=O)N3CCc4ccccc43)c(C)n2n1
  -0.5%	4.1e-09	i	i	6%
#50 COc1ccc2[nH]c(=O)c(CN(C(C)=O)c3cccc(C)c3)cc2c1
  0.7%	1.1e-08	i	i	0%
#51 CCOC(=O)N1CCC(Nc2c(NCCN3CCN(Cc4ccccc4)CC3)c(=O)c2=O)CC1
  0.3%	1e-09	i	i	?
#52 N#CCCCSc1nnc(CSc2nc3ccccc3s2)n1-c1ccccc1
  -0.8%	6.2e-08	i	i	?
#53 Cc1ccc(C)c2[nH]c(=O)c(CN(CC3CCCO3)S(=O)(=O)c3ccc4c(c3)OCCO4)cc12 (centres undefined)
  -0.3%	2.9e-08	i	i	4%
#54 COCCCNC(=O)C1C2C=CC3(CN(Cc4ccc(C)cc4)C(=O)C13)O2 (centres undefined)
  6.7%	1e-09	i	i	-2%
#55 Cn1nnnc1CCOCCc1nnnn1C
  -1.5%	4.9e-09	i	i	0%
#56 CCC(=O)N1c2ccc(S(=O)(=O)CCC(=O)Nc3nccs3)cc2CC1C (centres undefined)
  -0.9%	1e-09	i	i	-3%
#57 CCCCOC(=O)COc1ccc(Cl)cc1Cl
  1.2%	·	·	·	?
#58 CCOC(=O)C1CCCN(c2ncnc3c2[nH]c2cccc(OC)c23)C1 (centres undefined)
  3.2%	4.1e-08	i	i	-4%
#59 c1ccc(OCCOCCSc2ncccn2)cc1
  0.9%	·	·	·	13%
#60 CCn1c(SCC(=O)OC(C)C)nnc1-c1cccc(Cl)c1
  -1.2%	5.1e-09	i	i	15%

The list goes on.
Values in the order: AID923	A647 fluor	A488 autofl	Resorufin autofl	TSHR agonist
#61 CCCc1nc2oc3c(NCCN4CCOCC4)ncnc3c2c2c1CCCC2
  -0.8%	3.5e-08	i	i	11%
#62 CC(C)(C)c1ccc(OCC(=O)O)cc1
  -0.7%	1.4e-08	i	i	0%
#63 CCOC(=O)C1=C(O)CSC1=Nc1ccc(Cl)cc1
  -1.2%	·	·	·	6%
#64 O=C(CSc1nnc(CNC(=O)c2cccs2)o1)NCc1ccc(F)cc1
  0.9%	2.5e-08	i	i	9%[11.4 µM]
#65 c1n[nH]c(SCCCCSc2ncn[nH]2)n1
  -0.6%	1e-09	i	i	3%
#66 C/C(=N/NC(=O)c1ccncc1)c1ccccc1Cl
  -2.5%[11.5 µM]	4.3e-08	i	i	15%[11.4 µM]
#67 O=C(Oc1c(Cl)cc(Cl)c2cccnc12)N1CCCCC1
  -0.3%	·	·	·	9%
#68 CC(C)CC(C(=O)O)C(C)CC(=O)Nc1ccn(-c2ccccc2)n1 (centres undefined)
  ·	1e-09	i	i	·
#69 Cc1ccccc1C1CC(c2ccc(F)cc2)Nc2nc(N)nn21 (centres undefined)
  -1.9%	·	·	·	2%
#70 Cc1cccc(C(OC(=O)c2ccco2)C(=O)NCc2ccccc2)n1 (centres undefined)
  0.5%	1e-09	i	i	-6%
#71 CCCCOc1ccc(/C(N)=N/O)cc1
  2.5%	·	·	·	1%
#72 CCOC(=O)C1CCCN(C(=O)CN2C(=O)COc3ccc(C(C)(C)C)cc32)C1 (centres undefined)
  -1.9%	1.5e-08	i	i	7%
#73 CC(C)(C)N(Cc1cc2ccccc2[nH]c1=O)C(=O)c1cccnc1
  0.6%	1e-09	i	i	7%
#74 CCOC(=O)c1c(C)n(C)c2ccc(OCC(O)CN3C(=O)c4ccccc4S3(=O)=O)cc12 (centres undefined)
  -1.9%	1.1e-09	i	i	13%
#75 CCOc1ccccc1C1CC(c2ccc(Br)cc2)Nc2nc(N)nn21 (centres undefined)
  11%	·	·	·	12%
#76 COc1ccc(CN(C(=O)c2ccco2)c2ccc(Br)cc2)cc1OC
  -2.9%	3.3e-08	i	i	?
#77 Cc1ccc(CN2C(=O)CCC2C(=O)NC(C)C)cc1 (centres undefined)
  2.7%	1e-09	i	i	0%
#78 CCOCCCN1CC(C(=O)NCCc2ccc(C)cc2)CC1=O (centres undefined)
  -0.5%	1.4e-09	i	i	2%

A portion of the library (hit frequency here may not be typical).
